MT1-MMP promoter: inhibitors of MT1-MMP promoter transcription, cell-based, luciferase reporter, luminescence (AID 618) | MT1-MMP promoter luciferase reporter cells, luminescence | hit rate 0.62% among 87,000 | calls from a first round at 10 µM; hits with a dose series show EC50 in µM;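 active = over half of the reporter light lost at 10 µM or EC50 under 50 µM; inactive = the rest and hits that failed the dose series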;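 also: actives suppress MT1-MMP promoter-driven transcription so potencies describe inhibitors; HT1080 fibrosarcoma cells; overnight exposure; toxic or luciferase-blocking compounds were not removed from the actives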
Calls only; i = inactive. These rows are one share of the data (hit frequency here may not be typical).

SMILES | MT1-MMP promoter
COC(=O)[C@@]1(Cc2ccc(OC)cc2)[C@H]2c3cc(C(=O)N(C)C)n(Cc4ccc(S(C)(=O)=O)cc4)c3C[C@H]2CN1C(=O)c1ccccc1 | i
CCC1=C(OC(=O)N(CC)CC)N2C(=O)OC(=NCCc3c[nH]c4ccccc34)[C@]2(Cc2ccccc2)[C@H]2C1=CC[C@H]1C(=O)NC(=O)[C@H]12 | i
Cc1cc(CNC(=O)[C@@H]2C[C@H]2[C@@H](NP(=O)(c2ccccc2)c2ccccc2)c2ccccc2)nn1C | i
C1COCCNCCOCCOCCN1 | i
CCOc1ccc2c3c(c(=O)oc2c1OCC)CCCC3 | i
CCOc1ccc(CCNC(=O)CN2CCN(Cc3ccccc3F)C2=O)cc1OCC | i
Cc1ccc(C(=O)ONc2ccc(N=NC(=O)c3ccccc3O)cc2)cc1 | i
CCC1=C(OC(=O)N(CC)CC)N2C(=O)OC(=NCCc3c[nH]c4ccccc34)[C@]2(Cc2ccccc2)[C@H]2C1=CC[C@H]1C(=O)N(CC)C(=O)[C@H]12 | i
Nc1c(N)c2ccccc2oc1=O | i
CCC(=O)N1CCc2cc(Br)cc(S(=O)(=O)CCC(=O)NCCc3ccccc3)c21 | i
CN1/C(=C/C2CC(=O)N(c3cccc4ccccc34)C2=O)C(C)(C)c2ccccc21 (configuration not stated) | i
O=C(CC1NCCNC1=O)Nc1ccc2c(c1)OCO2 (configuration not stated) | i
CCOc1cc(S(=O)(=O)N2CCCCC2)ccc1F | i
CCn1c(SCC(=O)Nc2oc(-c3ccccc3)c(-c3ccccc3)c2C#N)nnc1-c1cc(OC)cc(OC)c1 | i
O=C(CCN1C(=O)c2ccccc2C1=O)N(CCO)Cc1ccccc1 | i
COC(=O)C(CC(C(=O)OC)C(=O)OC)C(=O)OC | i
COC(=O)[C@@H]1C[C@@H]2CC[C@@H](O)C[C@@H]2N1Cc1ccc(C(F)(F)F)cc1 | i
COc1ccc(-c2cc(C(F)(F)F)nc(-n3cncn3)n2)cc1 | i
CCOc1ccc(CCNC(=O)c2cc3sc(Cl)cc3n2C)cc1OCC | i
O=S(=O)(Nc1nccs1)c1ccc(Cl)cc1 | i
CCOC(=O)c1ccc(NS(C)(=O)=O)cc1 | i
CN1C[C@@H]2C(c3ccc(C(F)(F)F)cc3)C3(c4ccc(C#N)cc4)CC2(C3)[C@H]1c1ccccc1 (some centres not stated) | i
CCC(Sc1ncccc1C(=O)OC(C)C)C(=O)N1CCOCC1 (configuration not stated) | i
O=C(CCS(=O)(=O)c1cccc2nsnc12)NC1CCCCCC1 | i

Overlap with the part before: 2 compounds, then new ones.
SMILES | MT1-MMP promoter
CCC(Sc1ncccc1C(=O)OC(C)C)C(=O)N1CCOCC1 (configuration not stated) | i
O=C(CCS(=O)(=O)c1cccc2nsnc12)NC1CCCCCC1 | i
Cc1ccc2nc(-c3ccc(Br)o3)oc(=O)c2c1 | i
CN(C)c1ccc(CNC(=O)C2(C)C=CCN2C(=O)c2ccccc2)cc1 (configuration not stated) | i
CCOC(=O)C1=C(COc2ccccc2)NC(=O)NC1c1cccc([N+](=O)[O-])c1 (configuration not stated) | i
O=C(OCC#CCSc1nnc(-c2ccc([N+](=O)[O-])cc2)o1)c1cccs1 | i
COCCN1Cc2cccc(C(=O)N3CCN(c4ccccc4)CC3)c2C1=O | i
Cc1ccc(N2C(=O)CS/C2=C(\C(Cl)=C(Cl)Cl)[N+](=O)[O-])cc1 | i
O=C(Nc1ccc2c(c1)C(=O)N(CC1CCCO1)C2=O)c1ccccc1Br (configuration not stated) | i
O=C(c1ccco1)c1nc2c(n1O)CCCCC2 | i
Cc1ccc(CNC(=O)c2c(C)cc(=O)oc2C)cc1 | i
CCOC(=O)C1=C(C)N(CCCC(=O)O)C(=O)NC1c1ccc([N+](=O)[O-])cc1 (configuration not stated) | i
O=S(=O)(c1ccc(Br)cc1)n1ccc2ccccc21 | i
CCN(CC)CCn1c(=S)[nH]c2ncccc2c1=O | i
CC1CC(C)CN(C(=O)CN2CCN(Cc3ccc(Cl)cc3)C2=O)C1 (configuration not stated) | i
COC(=O)c1ccc(-c2ccco2)n1Cc1cc(C)ccc1C | i
O=C1c2ccccc2C(=O)N1CCc1nc(-c2ccc(Cl)cc2)no1 | i
CC(C)NC(=O)c1cc(-n2cnnc2)ccc1Cl | i
N#C/C(C(N)=O)=C1/CCc2ccccc2N1 | i
O=c1ccccn1Cc1c(F)cccc1Cl | i
CCOn1c(=O)c(-c2ccc(OC)c(OC)c2)[n+]([O-])c2ccccc21 | i
C=CCN(CC=C)C(=O)c1ccccc1NC(=O)c1ccccc1C | i
CCCCCNC(=O)C(C)Sc1ccc(Cl)cc1 (configuration not stated) | i
N#C/C(=C/c1ccc(N2CCCCCC2)o1)c1ccc(Cl)cc1 | i
O=C(NCc1ccccc1Cl)c1csc2c1CCCCC2 | i
O=C1CSC(c2cccnc2)N1c1ccc(F)cc1 (configuration not stated) | i

23 entries from above, with tabs:
mol	MT1-MMP promoter
CCC(Sc1ncccc1C(=O)OC(C)C)C(=O)N1CCOCC1 (configuration not stated)	i
O=C(CCS(=O)(=O)c1cccc2nsnc12)NC1CCCCCC1	i
Cc1ccc2nc(-c3ccc(Br)o3)oc(=O)c2c1	i
CN(C)c1ccc(CNC(=O)C2(C)C=CCN2C(=O)c2ccccc2)cc1 (configuration not stated)	i
CCOC(=O)C1=C(COc2ccccc2)NC(=O)NC1c1cccc([N+](=O)[O-])c1 (configuration not stated)	i
O=C(OCC#CCSc1nnc(-c2ccc([N+](=O)[O-])cc2)o1)c1cccs1	i
COCCN1Cc2cccc(C(=O)N3CCN(c4ccccc4)CC3)c2C1=O	i
Cc1ccc(N2C(=O)CS/C2=C(\C(Cl)=C(Cl)Cl)[N+](=O)[O-])cc1	i
O=C(Nc1ccc2c(c1)C(=O)N(CC1CCCO1)C2=O)c1ccccc1Br (configuration not stated)	i
O=C(c1ccco1)c1nc2c(n1O)CCCCC2	i
Cc1ccc(CNC(=O)c2c(C)cc(=O)oc2C)cc1	i
CCOC(=O)C1=C(C)N(CCCC(=O)O)C(=O)NC1c1ccc([N+](=O)[O-])cc1 (configuration not stated)	i
O=S(=O)(c1ccc(Br)cc1)n1ccc2ccccc21	i
CCN(CC)CCn1c(=S)[nH]c2ncccc2c1=O	i
CC1CC(C)CN(C(=O)CN2CCN(Cc3ccc(Cl)cc3)C2=O)C1 (configuration not stated)	i
COC(=O)c1ccc(-c2ccco2)n1Cc1cc(C)ccc1C	i
O=C1c2ccccc2C(=O)N1CCc1nc(-c2ccc(Cl)cc2)no1	i
CC(C)NC(=O)c1cc(-n2cnnc2)ccc1Cl	i
N#C/C(C(N)=O)=C1/CCc2ccccc2N1	i
O=c1ccccn1Cc1c(F)cccc1Cl	i
CCOn1c(=O)c(-c2ccc(OC)c(OC)c2)[n+]([O-])c2ccccc21	i
C=CCN(CC=C)C(=O)c1ccccc1NC(=O)c1ccccc1C	i
CCCCCNC(=O)C(C)Sc1ccc(Cl)cc1 (configuration not stated)	i

Back to the main list with the 2 entries that preceded the break.
SMILES | MT1-MMP promoter
O=C(NCc1ccccc1Cl)c1csc2c1CCCCC2 | i
O=C1CSC(c2cccnc2)N1c1ccc(F)cc1 (configuration not stated) | i
CCCc1cc(C(=O)Nc2cccnc2Cl)no1 | i
CCSc1nc(=S)n(-c2ccccc2)c(C)c1C(C)=O | i
CCc1ccc(NC(=O)Cc2cn(C)c3ccccc23)cc1 | i
CC(=O)NCCn1c(SCc2ccc(C)cc2)nc2ccccc2c1=O | i
Cc1ccc(C)c(OCCOCCN2CC(C)OC(C)C2)c1C (configuration not stated) | i
COc1cc(S(=O)(=O)NC2CCCC2)c(OC)cc1Cl | i
CCN1CCN(c2ccc(NC(=O)c3cccc(OCc4ccccc4)c3)cc2)CC1 | i
CCN(CC)CCCNC(=O)Cn1ncn2cccc2c1=O | i
O=C(Nc1ccc2ccccc2c1)[C@@H]1C[C@H]1[C@@H](NP(=O)(c1ccccc1)c1ccccc1)c1ccccc1 | i
COc1cc2nc(NCCCN3CCN(C)CC3)n3nc(-c4ccccc4)nc3c2cc1OC | i
Cc1ccc(O)c(C2=NCCNC(C(F)(F)C(F)F)=C2)c1 | i
O=S(=O)(N/N=C/c1cn(Cc2ccccc2)c2ccccc12)c1ccccc1 | i
O=c1ccc(/C=C/c2ccccc2)nn1Cc1ccccc1Cl | i
Cc1cc(C(=O)NCc2ccco2)no1 | i
CC1=C(C(=O)OCC(Br)(Br)Br)C(c2ccc(Br)cc2)NC(=O)N1CCCC(=O)O (configuration not stated) | i
CN1C[C@@H]2C(c3ccc(Cl)nc3)C3(c4ccccc4)CC2(C3)[C@H]1c1ccccc1 (some centres not stated) | i
Cc1cccc(-n2c(N)cc(=O)nc2SCC(=O)Nc2nnc(C)s2)c1 | i
COC(=O)c1cc(C)sc1NC(=O)C1CC=CCC1C(=O)O (configuration not stated) | i
CCOC(=O)N1CCC(Nc2c(Nc3ccc(F)cc3)c(=O)c2=O)CC1 | i
O=C1c2ccccc2C(=O)N1c1ccc(Cl)cc1 | i
CNC(=O)[C@@]1(C)C=C[C@@H](Cc2ccccc2)N1C(C)=O | i
O=c1oc2ccccc2cc1-c1nnc(NCc2ccco2)s1 | i
CCOC(=O)C1=C(OCc2ccc(Cl)cc2)C2C=C(C)C=CC2N=C1 (configuration not stated) | i
COc1ccc(Nc2nc(NC(C)(C)C)nc(N3CCCC3)n2)c(OC)c1 | i
CC1=C(C(=O)OCc2ccccc2)C(c2ccc(Cl)cc2Cl)NC(=O)N1CCCCCC(=O)O (configuration not stated) | i
CC1CCN(C(=O)N2c3ccccc3Sc3ccccc32)CC1 | i
Cc1ccc(S(=O)(=O)N(C)C2(C)CCS(=O)(=O)C2)cc1 (configuration not stated) | i
O=c1c2c(nc3n1CCCCC3)sc1c(O)c(Br)ccc12 | i
CCC1=C(OC(=O)N(CC)CC)N2C(=O)OC(=NCC3CC3)[C@]2(Cc2ccccc2)[C@H]2C1=CC[C@H]1C(=O)N(CC(=O)OC)C(=O)[C@H]12 | i
CCC1=C(OC(=O)N(CC)CC)N2C(=O)OC(=NCc3ccccc3)[C@]2(C)[C@H]2C1=CC[C@H]1C(=O)N(c3ccccc3)C(=O)[C@H]12 | i
COC(=O)CNc1c(-c2ccccc2)nc2ccc(Br)cn12 | i
CCOC(=O)c1c(N)c(C#N)c2n1CCCC2 | i
CCCCNC(=O)C(c1ccc(OCC(=O)OC)c(C(=O)OC)c1)N(CCOC)C(=O)CCCCCN1C(=O)NC(c2ccc(-c3ccccc3)cc2)C(C(=O)OCc2ccccc2)=C1C (configuration not stated) | i
C/C=C(\C)CN1CCN(c2cccc(C)c2C)CC1 | i
Cc1cc(Cl)c(OCCN2C(=O)NC(C)(C)C2=O)c(Br)c1 | i
COC(=O)c1ccc(C(NC(=O)OCc2ccccc2)/C(F)=C/[C@@H](C)C(=O)Nc2ccc(OC)cc2)cc1 (some centres not stated) | i
CCCCCCN(C(=O)CCCCCN1C(=O)NC(c2ccc(C(F)(F)F)cc2)C(C(=O)OCc2ccccc2)=C1C)C(C(=O)NCCCC)c1ccc(OCC(=O)OC)c(C(=O)OC)c1 (configuration not stated) | i
CCOc1ccc(N/C(=C(/C(Cl)=C(Cl)Cl)[N+](=O)[O-])n2cncn2)cc1 | i
CCOC(=O)C1=C(C)N(C)C(=O)NC1c1cccc([N+](=O)[O-])c1 (configuration not stated) | i
COC(=O)c1cccnc1NC(=S)NNC(=O)c1ccncc1 | i
CCC(C)(C(=O)NC1CCCCC1)N(Cc1ccco1)C(=O)Cc1cccs1 (configuration not stated) | i
CCOC(=O)c1ccc(NC(=O)N2CCN(C3CCCCC3)CC2)cc1 | i
COc1ccc(Cn2c(C)c(C)c(C#N)c2NC(=O)Nc2ccc(Cl)cc2)cc1 | i
Cn1cnnc1SCC(=O)c1ccc2c(c1)OCCO2 | i
CCN(CC)C(=O)CN1C(=O)COCC1=O | i
N#CC1=C(N)Oc2cc3ccccc3cc2C1c1cccnc1 (configuration not stated) | i
N#C/C(=C/c1ccc(Sc2nc3ccccc3[nH]2)o1)c1ccccc1F | i
C[C@@H](C(=O)NCCc1c[nH]c2ccccc12)[C@H]1C[C@]1(C)[C@H](NC(=O)OCc1ccccc1)c1ccccc1 | i
CCCCOC(=O)Cn1c(=O)n(CC(=O)OCCCC)c2cc(C)ccc21 | i
O=C(C1CC1)N(CCN(C(=O)C1CC1)c1ccccc1)c1ccccc1 | i
Cc1ccc(S(=O)(=O)NC(CC(C)C)C(=O)NCc2ccco2)cc1 (configuration not stated) | i
CCCC[C@@H]1C[C@H]1C(NC(=O)c1ccc(C(F)(F)F)cc1)c1ccc(C(=O)OC)cc1 (some centres not stated) | i
CN(C(=O)CSC1=Nc2ccccc2C2=NC(c3ccccc3)C(=O)N12)C1CCCCC1 (configuration not stated) | i
COC(=O)C1C(=O)C2=C(CC1C)NC(C)=C(C(=O)OC(C)C)C2c1ccc(C)o1 (configuration not stated) | i
CC(C)OC(=O)CSc1nnc(SCc2cccc3ccccc23)s1 | i
Cc1cc(S(=O)(=O)NC(C)C)ccc1OCC(=O)N1CCOCC1 | i
CCNS(=O)(=O)c1cc(OC)ccc1OC | i
COC(=O)[C@@]1(Cc2ccc(OC)cc2)[C@H]2c3cc(C(=O)N4CCCC4)n(CCF)c3C[C@H]2CN1C(=O)c1ccccc1 | i
COc1cc2c(cc1OC)C(CC#N)=NC(C)(C)C2 | i
Cc1ccc(N(CC(=O)N2CCOCC2)S(=O)(=O)c2ccccc2)cc1 | i
COCCCNC(=O)C1CC(=O)N(CCc2ccccc2)C1 (configuration not stated) | i

Screening data as filed in PubChem.
